Vaccinia mCherry – qHTS for Stage-Specific Inhibitors of Vaccinia Orthopoxvirus: mCherry Reporter Primary qHTS. Vaccinia virus mCherry reporter infection, fluorescence; about a quarter of the inactives have no number. Potency, µM (top dose mostly 36.5 µM), inactives show at the highest dose activity change, negative = inhibition, most hits filed as inhibitors. hit rate 0.63% among 310,000. AID 720579, 2013; active = well fitted inhibition curve with a large enough effect; inconclusive = small, poorly fitted or top-dose-only effect; inactive = no such curve, though single readings can be large or run the other way; tested in A549 cells; further: nearly all actives have a fitted effect of over 35% in size; inactives centre near -10
Vaccinia Venus – qHTS for Stage-Specific Inhibitors of Vaccinia Orthopoxvirus: Venus Reporter Primary qHTS. Vaccinia virus Venus reporter expression, fluorescence. Potency, µM (titrated, usually from 36.5 µM), inactives show at the highest dose activity change, negative = inhibition, actives largely listed as inhibitors. hit rate 0.46% among 330,000. AID 720580, 2013; active means well fitted inhibition curve with a large enough effect; inconclusive means small, poorly fitted or top-dose-only effect; inactive means no such curve, though single readings can be large or run the other way; tested in A549 cells; further: nearly all actives have a fitted effect of over 30% in size; inactives centre near -10
An asterisk follows results filed as active; i = inactive; ? = inconclusive; . = not tested or not shown; & = joins results of further samples; [ ] = another dose, or the depositor's remark. On the % scale 0 is the no-effect control and ±100 the full control effect; potency means the concentration at half of the fitted maximal effect.

SMILES	Vaccinia mCherry	Vaccinia Venus
COc1ccc(Cc2nc3ccc(C(=O)NCc4ccccc4Cl)cc3o2)cc1	-8%	4%
COC1CCN(Cc2cn(Cc3ccccc3)nc2-c2cc3ccccc3o2)CC1	-28%	-24%
Cc1nn(CC(=O)Nc2c(F)cc(F)cc2Br)c(=O)c2cccn12	i	-9%
Cn1ncc(Cl)c1C(=O)NCc1ccc(Cl)cc1	-26%	-16%
Cc1ccc([C@@H]2CC(=O)[C@@H]3CN(S(=O)(=O)c4ccc(C)cc4)[C@H](c4ccccc4F)C[C@@H]3N2S(=O)(=O)c2ccc(Cl)cc2)cc1	i	-6%
CCCn1c(-c2ccccc2)cc(SC)c(C#N)c1=O	-8%	-1%
Cc1nonc1OCCNc1ccc([N+](=O)[O-])cc1	i	-5%
O=C(Nc1ncc([N+](=O)[O-])s1)C1CC(=O)N(c2ccc(F)cc2)C1 (stereo not given)	-14%	-5%
COc1ccc(CCNC(=O)c2cnn(-c3cccc(C)c3)c2C2CCN(C(=O)OC(C)(C)C)CC2)cc1OC	i	-10%
CCCc1cc(=O)[nH]c(SCC(=O)Nc2ccc(Br)cc2)n1	-7%	3%
COc1ccc(CNc2nc3nc(C)c(Cl)c(=O)n3[nH]2)cc1	-17%	-12%
CCNc1nc(NC(C)(C)C)nc(SC)n1	-1%	-16%
CCn1nc(C)cc1C(=O)N1CCCC(Nc2ccc(C(C)C)cc2)C1 (stereo not given)	-3%	-19%
O=C(NCc1ccccc1Cl)C1CC(=O)N(Cc2ccccc2)C1 (stereo not given)	i	-17%
COC(=O)c1ccc(Oc2nc(NC(C)C)nc(SC)n2)cc1	.	0%
CC1(C)Cc2c(cnn2-c2ccc(F)cc2)C(NC(=O)C2=NNC(=O)CC2)C1 (stereo not given)	-16%[7.34 µM]	-7%[7.34 µM]
c1ccc(CCC2CCCCN2Cc2cn[nH]c2-c2cc3ccccc3o2)nc1 (stereo not given)	-17%	-16%
O=C(c1cccn1-c1nnc(N2CCCC2)s1)N1CCN(c2ccc(Cl)cc2)CC1	-14%	-9%
C/C(=N\S(=O)(=O)c1ccc(C)cc1)N1CCN(S(=O)(=O)c2ccccc2)C1	-18%	-13%
C[n+]1cccc2c(Br)ccc([O-])c21	-8%	15%
O=C(OCC(=O)N1CCCC1=O)c1cc(S(=O)(=O)N2CCOCC2)ccc1F	-26%	-19%
N#CCSc1nnc(COc2ccc3ccccc3c2)o1	?	?
O=C(COC(=O)C1CCC1)Nc1cc(S(=O)(=O)N2CCCCC2)ccc1Cl	i	-7%
COc1cccc(-c2nc(CS(=O)(=O)CC(=O)NC3CCCCC3C)c(C)o2)c1 (stereo not given)	-10%	-14%
CCc1ccc(-n2c(SCc3c(C)noc3C)nnc2-c2ccncc2)cc1	.	-13%
NNC(=O)c1csc(-c2ccc(C(F)(F)F)cc2Cl)n1	-24%	-17%
Cc1ccc(CSC2=NCCN2S(=O)(=O)c2ccc(C)cc2)cc1	-3%	-6%
CNC(=O)CN1C(=O)CSc2nc(C)cc(C)c21	-1%	-9%
CC(C)C(=O)Nc1nc2ccc(S(C)(=O)=O)cc2s1	-7%	?
O=S(=O)(Nc1ccc(-n2cnnn2)cc1)c1cccc(F)c1	?	-2%
CCc1cccc(OCCCCNCCO)c1	-25%	-18%
CCCC(=O)N1CCCC1(C)C(=O)Nc1ccc(OC(F)F)cc1 (stereo not given)	-14%	-8%
CC(=O)Nc1cccc(OCC(=O)NS(=O)(=O)c2ccc(Cl)cc2)c1	.	11%
Cc1ccc(S(=O)(=O)NCC2CCCO2)cc1 (stereo not given)	-14%	-10%
CC(C)c1nn2c(=O)cc(COC(=O)c3cccc(NC(=O)COc4ccc(F)cc4)c3)nc2s1	-9%	-6%
O=C(Cn1c(/C=C/c2ccccc2)nc2ccccc21)Nc1ccc(F)cc1	i	-10%
N#Cc1ccc(C(=O)NNC(=O)c2cccc(S(=O)(=O)N3CCOCC3)c2)cc1	-21%	-15%
Cc1ccc(NC2(C#N)C(=O)Nc3ccccc32)cc1 (stereo not given)	.	-9%
Cc1ccc(S(=O)(=O)NCc2ccco2)cc1C(N)=O	-5%	-10%
CS(=O)(=O)Nc1ccc(C(=O)Nc2cccc([N+](=O)[O-])c2)cc1	i	-16%
COc1ccc(-c2cc(C(F)(F)F)n3ncc(C(=O)N4CCCCC4c4cccnc4)c3n2)cc1 (stereo not given)	-11%	-11%
NC(=O)[C@H]1CC2(CC(c3cccc(NC(=O)CC(c4ccccc4)c4ccccc4)c3)=NO2)CN1C(=O)c1ccccc1C(=O)c1ccccc1 (stereo not given in full)	-7%	-27%
COCCNC(=O)c1c(C)oc2nc(C)nc(N3CCOCC3)c12	i	-3%
CN(CCO)c1cc(N(C)CCO)c([N+](=O)[O-])cc1[N+](=O)[O-]	-9%	-9%
CN(C)c1ccc(C=C2C(=O)c3ccccc3C2=O)cc1	34%[activator]	-4%
CCC1(c2ccccc2)NC(=O)N(CC(=O)Nc2cccc(S(=O)(=O)N3CCCCC3)c2)C1=O (stereo not given)	?	-29%
Cc1ccccc1-c1cc2nc(Oc3cccc(F)c3)n(C)c(=O)c2s1	33%[activator]	4%
COC(=O)C(O)(c1ccc2c(c1)CCCN2)C(F)(F)F (stereo not given)	-19%	-4%
NC(CCc1ccccc1)c1csc(Nc2ccc(C(=O)NCCO)cc2)n1 (stereo not given)	?	?
CCS(=O)(=O)N1Cc2ccccc2CC1C(=O)NCCc1ccccc1 (stereo not given)	i	-4%

Following part
SMILES	Vaccinia mCherry	Vaccinia Venus
COc1cc(CNCc2cccs2)ccc1OCc1ccccc1	?	-14%
COCCN(CCOC)Cc1cc(=O)oc2cc(C)c(Cl)cc12	10%	-2%
COc1ccc(Nc2nc(CC(C)=O)ns2)cc1	.	1%
O=C(O)c1ccccc1NC(=O)C1CCN(S(=O)(=O)c2ccc3c(c2)OCCO3)CC1	-2%	-5%
CCCc1nnc(NC(=O)CCC(=O)NCCc2ccc(OC)c(OC)c2)s1	-10%	-18%
Cc1ccc(CNC(=O)CSc2nc(N3CCCCC3)nc(N3CCCCC3)n2)cc1	-12%	1%
CCOC(=O)C1(Cc2ccccc2)CCCN(Cc2ccc(OCC)c(CO)c2)C1 (stereo not given)	-6%	-10%
CCOC(=O)C1CCN(C(=O)c2cccc(NC3=NC4CS(=O)(=O)CC4S3)c2)CC1 (stereo not given)	-8%	-9%
CC(NC(=O)NC1CCCCC1)C(c1cccs1)N1CCN(c2ccccc2)CC1 (stereo not given)	i	-15%
Cc1ccccc1-n1c(O)c(/C=N/Nc2nc3c(c(=O)n(C)c(=O)n3C)n2C)c(=O)[nH]c1=S	-28%	-4%

Single records, from the list above. Screens in order: Vaccinia mCherry	Vaccinia Venus
Entry for Cc1ccccc1-n1c(O)c(/C=N/Nc2nc3c(c(=O)n(C)c(=O)n3C)n2C)c(=O)[nH]c1=S : -28%	-4%
Entry for COc1cc(CNCc2cccs2)ccc1OCc1ccccc1 : ?	-14%
Entry for CCOC(=O)C1(Cc2ccccc2)CCCN(Cc2ccc(OCC)c(CO)c2)C1 (stereo not given) : -6%	-10%
Entry for CC(NC(=O)NC1CCCCC1)C(c1cccs1)N1CCN(c2ccccc2)CC1 (stereo not given) : i	-15%

The listing continues:
SMILES	Vaccinia mCherry	Vaccinia Venus
Cc1cc(C)n2nc(-c3cccnc3)nc2n1	.	-2%
CCCCCCc1ccc(N2C[C@H](C)[C@@H](CC(=O)NCc3ccccc3)C2=O)cc1	-16%	-28%
O=C(CSCc1ccccc1Cl)NN=C1CCCCCC1	-3%	-25%
Cc1ccc(N(CC(=O)NCc2ccco2)C(=O)CCC(=O)Nc2nccs2)c(C)c1	-4%	9%
Cc1ccc(S(=O)(=O)N2CCCCC2)cc1NC(=O)c1ccco1	i	-18%
CC(C)(C)Cc1nnc(NS(=O)(=O)c2ccc(F)cc2)s1	-9%	-10%
CCNC(=S)N1CCN(S(=O)(=O)c2cccc(C(F)(F)F)c2)CC1	-21%	-27%
CCCn1c(C)cc(-c2csc(NC(=O)CCc3nc4ccccc4c(=O)[nH]3)n2)c1C	-6%	13%
NC(=S)N1N=C(c2ccccc2)CC1=O	-23%	-8%
O=c1n(CC2CO2)c(=O)n(CC2CO2)c(=O)n1CC1CO1 (stereo not given)	?	?
O=C(CCc1nc2sc3c(c2c(=O)[nH]1)CCCC3)NCCOc1ccccc1	-10%	1%
COc1ccc(CCNC(=O)c2c(C)nn(-c3ccc(F)cc3)c2-n2cccc2)c(OC)c1OC	-28%	-23%
Cn1nc(-c2ccc(C(=O)NCC3CCCO3)cc2)c2ccccc2c1=O (stereo not given)	-3%	-12%
C=CC[C@@H](CC(=O)N[C@@H](CO)Cc1ccccc1)C(=O)N[C@H](COC(=O)[C@@H](CC=C)Cc1ccc(F)cc1)Cc1c[nH]c2ccccc12	-3%	?
O=C1c2ccccc2C(=O)N1CC1CO1 (stereo not given)	-3%	-10%
COc1cccc(NC(=O)CCC2CCN(C(=O)c3sccc3C)CC2)c1	i	-12%
COC(=O)NNC(=O)CCCOc1ccc(Cl)cc1Cl	-13%	5%
Cc1cccc(CN2CCN(C(c3ccccc3)c3ccc(Cl)cc3)CC2)c1 (stereo not given)	-6%&-26%	-13%&-16%
Cc1cc(=O)oc2cc(Oc3ncccn3)ccc12	-11%	5%
COc1cc2[nH]c(=S)n(Cc3ccc(F)cc3)c(=O)c2cc1OC	-2%	-14%
O=C(c1ccco1)N(Cc1ccc([N+](=O)[O-])cc1)c1ccc(Br)cc1	-17%	-14%
N#C/C(=C\c1cn[nH]c1-c1ccccc1Br)C(=O)O	-13%	-10%
O=C(NCc1ccccc1Cl)c1ccc(Br)o1	i	-11%
C=CCN1C(=O)/C(=C2\SC(N3CCOCC3)=NC2=O)c2cc(Br)ccc21	-13%	-3%
COc1ccc(OC)c2nc(-c3ccc4c(c3)OCO4)ccc12	?	-20%
COc1ccc(OCCN2CCC(C(=O)NC(c3ccccc3)c3ccc4ccccc4n3)CC2)cc1 (stereo not given)	-30%	-20%
CCOC(=O)c1ccc(S(=O)(=O)NNC(=O)COc2ccc(C)cc2)cc1	-11%	-8%
O=C(CCc1ccccc1)N1CCN(CCO)CC1	-12%	4%
O=C(NS(=O)(=O)Nc1ccccc1)C1=C(N2CCCC2)COC1=O	-2%	-9%
Nc1nc(SCC(=O)NCc2ccc3c(c2)OCO3)n[nH]1	-1%	-1%

A draw from above in order of SMILES length, lowest first.
SMILES	Vaccinia mCherry	Vaccinia Venus
COc1ccc(OC)c2nc(-c3ccc4c(c3)OCO4)ccc12	?	-20%
C=CCN1C(=O)/C(=C2\SC(N3CCOCC3)=NC2=O)c2cc(Br)ccc21	-13%	-3%
COc1ccc(OCCN2CCC(C(=O)NC(c3ccccc3)c3ccc4ccccc4n3)CC2)cc1 (stereo not given)	-30%	-20%

New compounds follow
SMILES	Vaccinia mCherry	Vaccinia Venus
O=C(c1ccccc1O)N1CCOCC1	-6%	-7%
CCOC(=O)C1CCN(CCC(=O)Nc2ccc(Br)c(C)c2)CC1	-14%	-3%&-7%
COc1ccc(CCNC(=O)CSc2ncc3c(n2)-c2cc(Cl)ccc2N(Cc2ccccc2)S3(=O)=O)cc1OC	-24%	-28%
O=C(COC(=O)C1CCN(c2ccc(C(F)(F)F)cn2)CC1)NCc1ccc(F)cc1	i	-4%
CC(=O)Nc1cccc(-c2csc(Nc3ccccn3)n2)c1	-14%	-22%
CCc1nnc(NC(=O)c2ccc(Cl)c(S(=O)(=O)N3CCc4ccccc4C3)c2)s1	-3%	3%
O=C(NC1CCN(C(=O)N2c3ccccc3Sc3ccccc32)CC1)c1ccccc1F	-13%	-14%
CSc1ccccc1C(=O)Nc1cccc([N+](=O)[O-])c1C	i	-6%
Cc1cccc(NC(=O)CN2CCN(CC(=O)Nc3cccc(C)c3)CC2)c1	-11%	-11%
Oc1[nH]c2ccc(Br)cc2c1N=NC(=S)NCC1CCCO1 (stereo not given)	-30%	-17%
Cc1cccc(N2CCN(C(=O)C3CCN(S(=O)(=O)c4c(C)noc4C)CC3)CC2)c1C	-15%	-12%
CC(=O)c1ccc(-n2c(-c3cc(-c4ccsc4)n[nH]3)n[nH]c2=S)cc1	-2%	-22%
COc1ccc(OC)c(NC(=O)CSc2c3c(nc4cc(Cl)ccc24)CCCC3)c1	-4%	-16%
O=C(N/N=C/c1cccc([N+](=O)[O-])c1)c1cc(-c2ccc3c(c2)OCO3)n[nH]1	-18%[7.34 µM]	-21%[7.34 µM]
CC1(C(=O)NCc2ccccc2)CSCC(=O)N1C1CCN(Cc2ccccc2)CC1 (stereo not given)	-19%	-6%
O=S(=O)(c1ccc2c(c1)OCCO2)N1CCC(O)(c2ccc(Cl)cc2)CC1	-3%	-18%
O=C(CSc1nc(-c2ccccc2)cc(=O)[nH]1)N1CCc2ccccc21	-5%	-4%
O=C(Nc1cccc(S(=O)(=O)N2CCCCCC2)c1)c1ccc2ccccc2n1	i	3%
C=C1CCC2C(CC2(C)C)C(=C)CC/C1=N/O (stereo not given)	i	0%
CCC(c1nnc(SCCNCCO)n1CCN1CCOCC1)N(C)C (stereo not given)	-10%	3%
COC(=O)c1ccc2c(=O)n(CCN3CCOCC3)c(SCC(=O)Nc3cccc(OC)c3)nc2c1	-10%	-16%
COc1ccc(OC)c(S(=O)(=O)N2CCC(C(=O)N3CCCC3)CC2)c1	-14%	-12%
CNc1cnc(-c2ccsc2)cn1	9%	-4%
